Bioassay records as filed in PubChem BioAssay.
HIV TAR-Tat = HIV-1 TAR-Tat binding disruption | HIV-1 TAR RNA, Tat peptide displacement FRET; active compounds read high | z-score (no concentration beside the values) | hit rate 0.6% among 100,000 | AID 1259389;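 also: score is relative to mean and SD of negative controls; some compounds called inactive have numbers as strong as hits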
CDC25B CDK2 inh = human CDC25B-CDK2/CyclinA binding inhibition; AID 1259370; P30305+P24941; HTRF CDC25B-CDK2/CyclinA binding, anti-His/anti-Flag; active compounds read high; hit rate 0.72% among 94,000; z-score (concentration not given with the values);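 also: score is relative to mean and SD of negative controls; strong numbers were not always called active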
Numbers without * were called inactive; . = not tested or not shown; & = joins results of further samples.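 The calls were made as follows: active = z-score from 3 up in half or more of its runs; inactive = the rest.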

SMILES	HIV TAR-Tat	CDC25B CDK2 inh
COC(=O)C1=C(C)NC(C)=C([N+](=O)[O-])C1c1ccccc1C(F)(F)F (stereo not drawn)	-6.74	-0.9
Cc1cc(NC(=O)CSc2nc3ccccc3c(=O)n2-c2ccc3c(c2)OCO3)no1	.	-1.22
Cc1ccc(-c2csc3ncn(CCCn4ccnc4)c(=O)c23)cc1	1.68	-1.13
Cn1c2c(c(=O)n(C)c1=O)CN(CCc1ccco1)CN2	0.44	-1.34
COc1cc(OC)c(NC(=O)N2CCC3(CC2)Nc2ccccc2-n2cccc23)cc1Cl	0.53	.
Cc1ccc(-c2cc3nc(-c4ccco4)cc(C(F)(F)F)n3n2)cc1	-3.8	-0.56
COc1cc2c(=O)n(CC3CCCO3)c(=O)n(CC(N)=O)c2cc1OC (stereo not drawn)	-0.21	0.51
Cc1ccc(S(=O)(=O)N2CC3CCCC2C3)cc1 (stereo not drawn)	.	-0.34
CCOc1cccc(-c2nc(=S)c3c([nH]2)Oc2c(O)cccc2C3)c1	0.46	-0.2
CN(CCc1ccccn1)C(=O)CCNC(=O)Cn1cnc2ccccc2c1=O	.	-0.54
COc1cccc2c(=O)c3ccccc3oc12	0.14	-0.58
CCc1ccnc(NC(=O)CCCC(=O)O)c1	.	-0.93
O=c1c(O)c(NCCC2=CCCCC2)c1=O	-0.38	.
Cc1nc(N2CCCCC2)cc(N2CCN(S(=O)(=O)c3ccc(C)c(C)c3)CC2)n1	0.24	-1.3
Cc1ccc(C)c(N2C(=O)c3nccnc3C2=O)c1	0.48	-2.44
CC1C2C(C)N(C)C(=O)N(C)C2N(C)C(=O)N1C (stereo not drawn)	.	-1.42
CCn1c(NCCCO)nc2c1c(=O)[nH]c(=O)n2C	0.42	-0.12
COc1ccc(C(CC(=O)c2ccccc2)SC(=O)c2ccccc2)cc1 (stereo not drawn)	.	-1.71
O=C1C(c2c(O)[nH]c3ccccc23)=Nc2ccccc21	4.72&3.51	.
O=C(OCCc1ccccn1)c1cnn2c(C(F)(F)F)cc(-c3ccccc3)nc12	1.01	0.63
Cn1nc(C(=O)Nc2ccccc2)c2c1-c1ccsc1CC2	0.42	.
O=C(CN1C(=O)CCc2ccccc21)NC1CCCc2ccccc21 (stereo not drawn)	2.23	.
Cn1c(=O)oc2cc(NS(=O)(=O)c3ccc(N4CCCC4=O)cc3)ccc21	-0.22	.
CC(C)Cn1c(=O)c2sccc2n2c(CCCC(=O)NCCC3=CCCCC3)nnc12	-0.12	.
CCN(Cc1ccccc1)C(=O)CSC1=Nc2ccccc2C2=NC(c3ccccc3)C(=O)N12 (stereo not drawn)	.	-0.79
Cc1ccc(C)c(NC(=O)CCc2nnc3ccc(NCc4ccc5c(c4)OCO5)nn23)c1	-2.02	.
Nc1ccc(C(=O)CC2(O)C(=O)N(Cc3ccc(Cl)cc3)c3ccccc32)cc1 (stereo not drawn)	.	-0.64
Cc1nc2ncnn2c(N2CCN(c3ccccc3)CC2)c1C	1	.
CC1=C(C)C(=O)C(CCCCC#CCCCC#CCO)=C(C)C1=O	0.65	-0.68
CC1=C(C(=O)OC(C)C)C(c2cccc(OCc3ccccc3)c2)n2ncnc2N1 (stereo not drawn)	0.34	0.36
CCc1nc(SC)ncc1C(=O)Nc1cccnc1	-0.71	.
O=C(COc1ccccc1Cl)OCc1cc(=O)n2nc(C3CCCCC3)sc2n1	-0.23	.
CC(=O)c1cccc(OC(=O)c2cc(-c3ccc(C)c(C)c3)nc3ccccc23)c1	.	-7
Cc1ccc2nc(NC(=O)C(NS(=O)(=O)c3ccc4c(c3)oc(=O)n4C)C(C)C)sc2c1 (stereo not drawn)	.	-4.34
O=C(C1CCN(c2ncnc3c2nc2n3CCCCC2)CC1)N1CCN(c2cccc(Cl)c2)CC1	0.71	.
COc1cccc([C@@H]2Nc3ccc(C(=O)O)cc3[C@@H]3C=CC[C@@H]32)c1OC	-0.49	0.41
CS(=O)(=O)n1nc(-c2ccco2)nc1NCc1ccc(F)cc1	1.65	-1.91
O=C(CSc1nccn(-c2cccc(F)c2)c1=O)Nc1ccc(F)cc1F	-0.47	.
CCOC(=O)N1CCN(S(=O)(=O)c2cc(Br)cc3c2N(C(C)=O)C(C)C3)CC1 (stereo not drawn)	0.62	0.31
O=C(Nc1ccccc1C(=O)NCCc1ccccc1)c1ccccc1Cl	.	1.13
Cc1nc2cccnc2n1C1CCN(S(=O)(=O)N(C)C)CC1	0.11	.
O=C(O)CCCn1nnc2cc(S(=O)(=O)N3CCCC3)ccc21	1.97	.
CCCCn1c(=O)n(-c2ccc(Br)cc2F)c(=O)c2c3c(sc21)CN(C(C)=O)CC3	-0.64	-3.48
Cc1ccc(-c2cnnc(-n3nc(C)c4c3NC(=O)CC4c3ccc(F)cc3)n2)cc1 (stereo not drawn)	2.12	0.07
OCCn1c(-c2ccc(-c3ccccc3)cc2)cn2c3ccccc3nc12	1.79	-0.18
Fc1ccc(CSc2ccc3nnc(-c4ccccc4)n3n2)cc1	.	-2.25
O=C1CC(c2ccccc2)=Nc2cccnc2N1	-2.32	2.56
CC1CCc2c(sc(N)c2C(=O)Nc2ccc(Cl)cc2)C1 (stereo not drawn)	-4.06	-1.47
Cc1ccc(Cl)c2c1NC(=O)C2(O)CC(=O)c1ccc(C(C)C)cc1 (stereo not drawn)	-0.05	-0.94
Cc1ccc(-c2nc(C)c(CCNS(=O)(=O)c3ccc(C)cc3)s2)cc1	1.63	.
CCOc1ccc(C2CC(=O)Nc3cc4c(cc32)OCO4)cc1OCC (stereo not drawn)	-0.26	-1.13
c1ccc(-n2nnnc2CSc2nnc3sc4ccccc4n23)cc1	1.25	1.07
c1ccc(CCCNc2ccc(-c3cccs3)nn2)cc1	0.12	.
CCNc1cc(O)c(SSc2cc(C)c(NCC)cc2O)cc1C	.	-3
CCCSc1nc(=O)c2c(n1C)NC(=O)CC2c1ccc(O)c(OCC)c1 (stereo not drawn)	1.43	1
COc1ccc(OC)c(S(=O)(=O)N2CC(C)OC(C)C2)c1 (stereo not drawn)	0.27	-0.21
S=C(NCC1CC1)Nc1cccnc1	.	-2.66
CSc1ncc(C(=O)NCc2cccc(Br)c2)c(-c2ccccc2)n1	1.78	.
CCc1cc2c(cc3c(=O)n(CC(=O)NC(C)C)nc(CC)n32)s1	-0.18	-1.62
CCOC(=O)CC(C)(C)CC(=O)C1CNC2=C(C1)C(=O)CC(C)(C)C2 (stereo not drawn)	.	-2.3

Continued, overlapping the part above by 5 compounds.
SMILES	HIV TAR-Tat	CDC25B CDK2 inh
COc1ccc(OC)c(S(=O)(=O)N2CC(C)OC(C)C2)c1 (stereo not drawn)	0.27	-0.21
S=C(NCC1CC1)Nc1cccnc1	.	-2.66
CSc1ncc(C(=O)NCc2cccc(Br)c2)c(-c2ccccc2)n1	1.78	.
CCc1cc2c(cc3c(=O)n(CC(=O)NC(C)C)nc(CC)n32)s1	-0.18	-1.62
CCOC(=O)CC(C)(C)CC(=O)C1CNC2=C(C1)C(=O)CC(C)(C)C2 (stereo not drawn)	.	-2.3
Cn1nc(C(=O)NC2CCCC2)c2c1-c1ccccc1OC2	1.82	-1.12
O=C(NCC(c1ccco1)S(=O)(=O)c1ccc(Cl)cc1)C(=O)NC1CCCCC1 (stereo not drawn)	1.13	.
Cc1nc2c(=O)oc3ccccc3c2n1C	.	-0.76
CC1=C(c2ccc(C)cc2)S(=O)(=O)NC1=NCc1ccc(Cl)cc1	2.01	-6.51
Cn1c(SCCS(=O)(=O)c2ccc(Cl)cc2Cl)nnc1-c1ccco1	.	-1.4
CC(=O)Oc1ccc2nc(-c3ccc(C(C)(C)C)cc3)oc(=O)c2c1	-0.77	0.12
COc1ccc(C)cc1NS(=O)(=O)c1cc(-c2cnc(C3CC3)o2)ccc1C	2.33	.
O=C(NCc1cccs1)C1=Cc2cc(Br)ccc2OC1	0.99	.
O=C(NCC(O)c1ccccc1)c1ccccc1 (stereo not drawn)	.	-0.92
O=C(CSc1nc2nccnc2c(=O)n1Cc1cccs1)Nc1ccccc1	-0.89	.
COC(=O)c1c(SCC(=O)Nc2cc(F)ccc2F)[nH]c2ccc(Cl)cc2c1=O	0.87	.
CCOc1ccc(C2C(C(=O)OC(C)C)=C(C)Nc3nc4ccccc4n32)cc1 (stereo not drawn)	1.05	1.17
CN(C)CCCN(C(=O)CCc1ccccc1)c1nc2c(F)cc(F)cc2s1	3.13	.
CC1(C(=O)NC2CCCC2)Cn2c(c(-n3cccc3)c3ccccc32)C(=O)N1CCc1cccs1 (stereo not drawn)	0.91	.
CCSc1nnc2c(n1)OC(C)=Nc1ccccc1-2	1.03	1.41
CC(C)C(NS(=O)(=O)c1ccc2c(c1)oc(=O)n2C)C(=O)NCc1cccs1 (stereo not drawn)	.	-0.78
CCCCCCNc1cc(C)nc2c(-c3ccc(F)cc3)c(C)nn12	-1.35	-1.63
CC(C)(C)C(=O)N1CCc2cc3ccccc3nc21	-0.09	-1.84
CCc1cc2c(NC(C)CC)ncnc2s1 (stereo not drawn)	1.9	.
O=C1C(c2cccc(Br)c2)N(CCc2ccccc2)C(=O)CN1C1CCCCC1 (stereo not drawn)	.	-0.44
CCC(C)NC(=O)CN(C)S(=O)(=O)c1ccc2c(c1)CCC(=O)N2 (stereo not drawn)	.	-0.86
O=C(NCc1ccccc1)Oc1ccc(Br)cc1	.	-2.96
O=C(Nc1ccc2oc(-c3ccc(F)cc3Cl)nc2c1)c1ccc(Br)o1	.	-1.46
OC(CNCC1COc2ccccc2O1)c1ccccc1 (stereo not drawn)	.	-2.1
O=C(Cn1cnc(S(=O)(=O)N2CCCCC2)c1)N1CCc2ccccc21	-0.84	.
CC(=O)Nc1nc(CCC(C)C)cc2c1c(=O)oc1ccccc12	.	-0.16
O=C1C2C(C(=O)N1c1ccc(F)cc1)N1CCCN1C2c1ccccc1 (stereo not drawn)	.	-1.28
CCc1ccccc1Nc1c(-c2ccc3c(c2)OCC(=O)N3)c(=O)c1=O	-0.45	.
COc1ccc(N2CCN(Cc3csc4c3CCCC4)CC2)cc1	1.11	.
CCC1CN(C(=O)N2CCC(C(=O)NC(C)C)CC2)c2ccccc2O1 (stereo not drawn)	2.91	.

2 consecutive entries already listed:
SMILES	HIV TAR-Tat	CDC25B CDK2 inh
CC(C)C(NS(=O)(=O)c1ccc2c(c1)oc(=O)n2C)C(=O)NCc1cccs1 (stereo not drawn)	.	-0.78
CCCCCCNc1cc(C)nc2c(-c3ccc(F)cc3)c(C)nn12	-1.35	-1.63

Next records
SMILES	HIV TAR-Tat	CDC25B CDK2 inh
CCCCNC(=O)CCC(=O)N1CC(C)Oc2ccc(Cl)cc21 (stereo not drawn)	0.56	-0.14
Cc1cn2c(=O)cc(CSc3nnc(NC(=O)c4ccccc4)s3)nc2s1	0.28	.
CCCOc1ccc(C2C(=O)N(C3CCC(C)CC3)CC(=O)N2Cc2cccs2)cc1OC (stereo not drawn)	.	-2.18
Cn1cc(-c2cc3n(n2)CCCN3C(=O)CCC(=O)N2CCCCC2)c2ccccc21	1.89	.
COCCOC(=O)C1=C(C)N=C2SCCC(=O)N2C1c1ccc(OC(C)=O)cc1 (stereo not drawn)	-1.78	0.02
COC(=O)c1cc2oc(C)cc2n1Cc1nc(-c2ccc(OC)c(OC)c2)oc1C	-0.01	-0.8
CCn1c(C)nc2c(=O)oc3ccccc3c21	0.66	0.76
CCc1ccc(CNc2nc3nc(C)c(C)c(=O)n3[nH]2)cc1	2.25	-0.47
N#Cc1cc2c(nc1SCc1ccc(Cl)cc1)CCC2	0.64	1.1
CC1CC(C)CN(CCCNC(=O)C2CCN(c3nnc(N4CCCC4=O)s3)CC2)C1 (stereo not drawn)	1.85	-0.2
O=C(O)c1nn(-c2ccc(Cl)cc2)c(=O)c2ccccc12	.	-0.51
Brc1ccc(-c2nnc(-c3cccs3)o2)cc1	1.38	-1.71
CC(C)Nc1cc(N2CCN(CCO)CC2)c2noc3c2c1C(=O)c1ccccc1-3	9.49*	0.08
COc1cccc(C(=O)Cn2c(=O)n(CC3CCCO3)c(=O)c3cc(OC)c(OC)cc32)c1 (stereo not drawn)	1.4	0.6
CCc1nnc(NC(=O)CN2C(=O)CSc3ccc(S(=O)(=O)N(CC)CC)cc32)s1	-0.04	-0.51
Cc1nn(-c2ccc(F)cc2)c(-n2cccc2)c1C(=O)O	-2.6	0.39
O=C1COc2cc(S(=O)(=O)N3CCN(c4ccc(Cl)cc4)CC3)c(Cl)cc2N1	2.65	.
Cc1ccc(C2C=C(C(=O)O)Nc3nnnn32)cc1Br (stereo not drawn)	2.32	.
COc1ccc(/C=C/c2nc(C#N)c(N3CCN(C(=O)c4ccc(OC)cc4)CC3)o2)cc1	0.08	1.97
COc1ccc(OC)c(NC(=O)Nc2nnc(N3CCCCC3C)s2)c1 (stereo not drawn)	-0.47	-1.1
Cc1ccc2oc(=O)c3cnn(CC(=O)NC(C)C)c3c2c1	2.75	-1.71
CCN1CCCC1CNS(=O)(=O)c1c(C(=O)N2CCCCC2)c(C)n(C)c1C (stereo not drawn)	0.64	.

Some of the entries so far, with each value named.
Nc1ccc(C(=O)CC2(O)C(=O)N(Cc3ccc(Cl)cc3)c3ccccc32)cc1 (stereo not drawn)
  HIV TAR-Tat = .
  CDC25B CDK2 inh = -0.64

Cc1nc2ncnn2c(N2CCN(c3ccccc3)CC2)c1C
  HIV TAR-Tat = 1
  CDC25B CDK2 inh = .
